From PubChem
MITF inhib = MITF inhibition; 0.28% of 37,000 active; AID 2240; TRPM1 promoter luciferase, luminescence, 24 h; inhibition, % (concentration not given with the values);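 active means most replicates at 85% or more, or half of them and the mean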;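 further: human melanocyte line stably carrying TRPM1 promoter luciferase reporter; 0% = vehicle wells and 100% = a positive control; the first replicate is given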
Starred values were filed as active, the others as inactive. A portion of the library, so the mix of outcomes need not match the whole.

Start of the listing, in advance:
SMILES	MITF inhib
Cc1nn(C)cc1CN(C)C(=O)c1nn2c(c1Br)NC(c1cccs1)CC2C(F)(F)F (stereo unspecified)	3.5
CN(C)C(=O)CSc1nc2ccccc2c(=O)[nH]1	1.9
CCCn1c2ccccc2c2nnc(SCC(=O)O)nc21	5.9
COC(=O)c1cccc(NC(=O)CN2C(=O)c3ccccc3S2(=O)=O)c1C	-12.7

Main list (from the top)
SMILES	MITF inhib
Cc1nn(C)cc1CN(C)C(=O)c1nn2c(c1Br)NC(c1cccs1)CC2C(F)(F)F (stereo unspecified)	3.5
CN(C)C(=O)CSc1nc2ccccc2c(=O)[nH]1	1.9
CCCn1c2ccccc2c2nnc(SCC(=O)O)nc21	5.9
COC(=O)c1cccc(NC(=O)CN2C(=O)c3ccccc3S2(=O)=O)c1C	-12.7
COc1cccc(NC(=O)CC2C(=O)NC3CCCCC3N2C(=O)c2ccccc2)c1 (stereo unspecified)	3.1
O=C(CSc1nc2ccccc2[nH]1)Nc1ccccc1-c1ccccc1	28.6
COc1ccc(N(CC(=O)Nc2cc(C)ccc2OC)S(C)(=O)=O)cc1Cl	-19.3
CCOc1ccccc1NC(=O)c1ccsc1NC(=O)c1cc2ccccc2oc1=O	-0.2
Clc1ccc(COc2ccccc2CNc2ncn[nH]2)c(Cl)c1	21.2
COc1ccc(OC)c(NC(=O)CNC(=O)c2ccc(C(C)(C)C)cc2)c1	13.4
Cc1ccc(NC(=O)Cn2cnc3ccccc3c2=O)cc1C	3.8
O=C(c1c[nH]c2ccccc12)C(O)C(c1ccccc1)N1CCCCC1 (stereo unspecified)	-5.8

Taken from the listing, three compounds:
SMILES	MITF inhib
Cc1nn(C)cc1CN(C)C(=O)c1nn2c(c1Br)NC(c1cccs1)CC2C(F)(F)F (stereo unspecified)	3.5
CN(C)C(=O)CSc1nc2ccccc2c(=O)[nH]1	1.9
CCCn1c2ccccc2c2nnc(SCC(=O)O)nc21	5.9

More entries follow.
SMILES	MITF inhib
N#Cc1ccccc1NC(=O)c1ccccc1OCC(=O)Nc1ccc2c(c1)oc1ccccc12	21.4
O=C(CSc1nnc(-c2ccccc2)n1-c1ccccc1)N1c2ccccc2Sc2ccccc21	3.3
CCn1c(SCC(=O)Nc2ccccc2-c2ccccc2)nnc1-c1cccs1	0.4
CCCSc1nnc(-c2cc(Br)ccc2NC(C)=O)c(=O)[nH]1	33.3
COC(=O)c1cc(NC(=O)CSc2ccccn2)cc(C(=O)OC)c1	-13.3
COc1ccc(NC(=O)CNC(=O)c2cccc(C)c2)cc1	-11.3
Cc1cc(NC(=O)c2cc3nc(-c4cccs4)cc(C(F)(F)Cl)n3n2)n(-c2ccccc2)n1	36.0
Clc1ccc(-c2nnc(SCc3nc4ccccc4[nH]3)o2)c(Cl)c1	35.9
Nc1nc(CSc2ccccn2)nc(Nc2ccccc2)n1	-72.2
COc1ccc(OC)c(NC(=O)CSc2ncccn2)c1	-8.9
O=S1(=O)NC(=NCCCCO)c2ccccc21	-8.3
COc1ccccc1NC(=O)CNC(=O)c1ccccc1	-70.6
O=C(CSc1n[nH]c(-c2ccccc2Cl)n1)Nc1ccccc1F	-27.4
O=C(CN1C(=O)c2ccccc2S1(=O)=O)Nc1ccccc1Cl	9.8
CCN(CC(=O)Nc1cccc(SC)c1)S(=O)(=O)c1ccc(C)cc1	20.9
Cc1cc(=O)oc2cc(NC(=S)NCc3cccnc3)ccc12	-61.3
CC(C)c1cc(I)ccc1NC(=O)CSc1nc2ccccc2c(=O)[nH]1	25.2
Cc1ccc(NC(=O)CSc2nc3sc4c(c3c(=O)n2-c2ccccc2)CCC4)c(C)c1	6.0
O=C(COc1ccc2c(-c3ccccc3)cc(=O)oc2c1)Nc1cc(C(F)(F)F)ccc1Cl	12.9
COc1cc(C(=O)N(Cc2ccco2)c2ccc(O)cc2)cc(OC)c1OC	0.6
O=C(OCc1cccc(C(=O)c2ccccc2)c1)c1ccc(-c2nnc(-c3ccccc3)o2)cc1	-27.7
O=C(Nc1ccccc1[N+](=O)[O-])C1(c2ccccc2)CCN(S(=O)(=O)c2ccccc2)CC1	-6.8
Cc1nc(-c2ccccc2O)n(S(=O)(=O)N(C)C)n1	-22.2
COc1ccc(NC(=O)CSc2nccc(C)n2)cc1	-27.5
CCOC(=O)Cc1cc(-c2ccccc2O)nc2ccc3ccccc3c12	37.5
CCn1c(SCC(=O)Nc2cccc3ccccc23)nnc1-c1ccco1	-19.6
CCOc1ccc2nc(SCC(=O)Nc3cccc(C(F)(F)F)c3)sc2c1	-15.7
NC(=O)C1CCN(C(=O)CSc2nc3c(c(-c4ccccc4)n2)CCCC3)CC1	-30.5
CC(=O)NCCc1nc2cc(NC(=O)Nc3ccccc3)ccc2n1C	-18.5
CS(=O)(=O)N(CC(=O)NC1CCCCC1)c1cc(Cl)c(Cl)cc1Cl	9.7
Cc1c(O)nc(SCC(=O)Nc2cccc(C(F)(F)F)c2)n(-c2ccccc2)c1=O	0.0
CCN(CC(=O)Nc1ccc(Cl)c(C(F)(F)F)c1)S(=O)(=O)c1ccc(C)cc1	26.4
O=C(CN(C1CCCCC1)S(=O)(=O)c1ccc(F)cc1)Nc1cc(Cl)ccc1Cl	-13.3
O=C(COc1ccc(S(=O)(=O)N2CCCC2)cc1Cl)Nc1ccccc1F	-24.3
CCS(=O)(=O)c1nc2ccccc2n1CC(=O)N1CCCCC1	-15.2
Cn1c(SCC(=O)NC(C)(C)C)nnc1-c1ccco1	-9.8
O=C(Nc1cnn(C23CC4CC(CC(C4)C2)C3)c1)C1CC(c2ccc(Cl)c(Cl)c2)=NO1 (stereo unspecified)	-3.3
Cc1c(Br)c([N+](=O)[O-])nn1CC(=O)NCc1ccccn1	-3.0
O=S(=O)(Cc1ccc(Cl)cc1)NCc1ccccn1	6.6
CC(=O)c1cccc(NC(=S)NCc2cccnc2)c1	-6.2
OCc1nnn(-c2ccc(Br)cc2)c1CO	-12.4
COc1ccc(Cl)cc1NC(=O)CSc1nnc(-c2cc3cc(Br)ccc3o2)n1C	10.5
COC(=O)c1ccc(NC(=O)CSc2nnc(C)n2-c2ccccc2)cc1	3.8
CC(Sc1nnc(N)s1)C(=O)Nc1ccc(Cl)cc1 (stereo unspecified)	2.1
COc1ccc(NC(=O)NCc2ccccn2)cc1OC	41.0
O=C(CSc1n[nH]c(-c2ccncc2)n1)Nc1cccc(Cl)c1	1.7
COc1ccc(Cl)cc1NC(=O)CSc1nc2ccccc2c(=O)[nH]1	6.9
COc1ccc(NC(=O)Cn2cc(C(=O)c3cccs3)c3ccccc32)cc1	29.7

Random excerpt: three compounds from above
SMILES	MITF inhib
COc1ccc(Cl)cc1NC(=O)CSc1nc2ccccc2c(=O)[nH]1	6.9
COc1ccc(Cl)cc1NC(=O)CSc1nnc(-c2cc3cc(Br)ccc3o2)n1C	10.5
COC(=O)c1ccc(NC(=O)CSc2nnc(C)n2-c2ccccc2)cc1	3.8

(list continues)
SMILES	MITF inhib
CC(C(=O)Nc1sc2c(c1C#N)CCC2)n1cc([N+](=O)[O-])cn1 (stereo unspecified)	18.7
COC(=O)CNC(=O)c1cn(-c2ccccc2)nc1-c1cc2ccccc2oc1=O	6.7
Cc1c(NC(=O)c2ncn[nH]2)cccc1-c1nc2cc(Cl)ccc2o1	-37.5
COc1ccc(NC(=O)CSc2nnc(-c3ccncc3)n2-c2ccc(Cl)cc2)cc1	-3.8
Cc1ccccc1NC(=O)CSC1CC(=O)N(c2ccc(F)cc2)C1=O (stereo unspecified)	-10.4
CN(C)c1ccc(NC(=O)CSc2nc3c(c(C(F)(F)F)c2C#N)CCCCCC3)cc1	0.0
O=[N+]([O-])c1ccccc1OCC(O)CNC1CCCC1 (stereo unspecified)	-13.0
COC(=O)c1cc(OC)c(OC)cc1NC(=O)CN1CCOCC1	-15.5
Cc1cc(Cl)c(S(=O)(=O)Nc2cccc(C(F)(F)F)c2)cc1OCC(N)=O	12.3
CC(C)(C)C1CCc2c(sc(NC(=O)CSc3n[nH]c(-c4ccco4)n3)c2C#N)C1 (stereo unspecified)	-103.1
Cc1nnc(SCC(=O)Nc2ccc(Br)cc2Cl)s1	-26.7
O=C(NCc1ccco1)c1ccc(NC(=O)c2ccco2)cc1	-38.9
CCn1c2ccccc2c2cc(NC(=O)COc3ccc([N+](=O)[O-])cc3)ccc21	-0.3
O=C(CSc1nc(-c2ccccc2)cc(=O)[nH]1)Nc1cc(C(F)(F)F)ccc1Cl	1.8
Cc1ccc(N(C(C)C(=O)Nc2ccccc2C(=O)N2CCOCC2)S(C)(=O)=O)cc1C (stereo unspecified)	12.9
O=C(Nc1ccc(Cc2ccc(O)c(NC(=O)c3ccccc3F)c2)cc1O)c1ccccc1F	26.1
O=C(CCCN1C(=O)c2cccc3cccc(c23)C1=O)Nc1ccccc1C(F)(F)F	-7.8
Cc1c(Br)c([N+](=O)[O-])nn1C(C)C(=O)Nc1c(C)n(C)n(-c2ccccc2)c1=O (stereo unspecified)	-5.7
COc1ccc(NC(=O)CSC2CC(=O)N(c3ccc(F)cc3)C2=O)cc1 (stereo unspecified)	-4.3
CCOc1ccc(-n2c(SCC(=O)Nc3ccc(Cl)cc3)nc3ccccc3c2=O)cc1	-4.5
O=C(O)C(Oc1ccc2c(-c3ccccc3)cc(=O)oc2c1)c1ccccc1 (stereo unspecified)	-6.4
CS(=O)(=O)N(CC(=O)Nc1ccc(C(N)=O)cc1)c1cccc(C(F)(F)F)c1	3.0
CC(C)NS(=O)(=O)c1ccc(OCC(N)=O)c(Cl)c1	-29.0
COc1cc(S(=O)(=O)NCc2ccccn2)ccc1Cl	-1.1
Cc1cc([N+](=O)[O-])ccc1NC(=O)CSc1nnc(-c2ccc(Br)cc2)o1	0.8
COc1cc([N+](=O)[O-])ccc1NC(=S)NCc1cccnc1	14.9
COC(=O)c1cc(OC)c(OC)cc1NC(=O)CSc1nc(C)cc(C(F)(F)F)c1C#N	32.2
COC(=O)c1cc(C)sc1NC(=S)NCCn1cc(Cl)cn1	21.2
CCN(CC(=O)Nc1cccc(C(C)=O)c1)S(=O)(=O)c1ccc(F)cc1	-11.9
Cc1ccc2nc(-c3cccnc3)cc(C(=O)Nc3ccc(S(=O)(=O)NC(C)(C)C)cc3)c2c1	-3.2
CCn1c(SCC(=O)Nc2cccc(Br)c2)nnc1-c1ccc(OC)cc1	18.5
Cc1cc(C)nc(Nc2n[nH]c(CSc3nc4ccccc4s3)n2)n1	19.9
O=C(COc1cccc(NC(=O)c2ccc([N+](=O)[O-])cc2)c1)c1ccc(Br)cc1	32.7
CC1CCCCN1Cc1nc(N)nc(Nc2ccc3c(c2)OCCO3)n1 (stereo unspecified)	-20.9
COc1ccc(NC(=O)CNC(=O)c2ccc(F)cc2)cc1	-59.8
O=C(Cn1cnc2ccccc2c1=O)Nc1cccc(Cl)c1Cl	12.1
CCN(CC(=O)Nc1ccc(Br)cc1F)S(=O)(=O)c1ccc2ccccc2c1	8.8
CC(C)(C)C1CCc2c(sc(NC(=O)CSc3n[nH]c(-c4ccncc4)n3)c2C#N)C1 (stereo unspecified)	-2.2
COc1ccc(NC(=O)CCSc2ccc([N+](=O)[O-])cc2)cc1	2.9
Cc1ccc2c(c1)c1c(n2CC(O)CO)C(=O)CCC1 (stereo unspecified)	5.6
O=C(COc1ccccc1C(=O)Nc1ccccc1)Nc1ccc([N+](=O)[O-])cc1	-4.8
CCOC(=O)c1c(NC(=O)C2CC(c3cccc(Br)c3)=NO2)sc(C(=O)OC)c1C (stereo unspecified)	-11.8
Cc1cc(C)c2nc(-c3ccccn3)cc(C(=O)NCc3ccc(S(N)(=O)=O)cc3)c2c1	27.8
COc1ccc(-c2ccc(CCC(=O)O)n2-c2ccc(Br)cc2)cc1	-3.0
CN1CCC(OC(=O)COc2ccc(Br)cc2)CC1	-5.9
COc1ccccc1CC(CC(=O)O)C(=O)O (stereo unspecified)	4.7
COc1ccc(NC(=O)CSc2nc3c(c(-c4cccs4)c2C#N)CCCC3)cc1	18.9
CCc1ccc(CCC(=O)Nc2sc3c(c2C#N)CCCC3)o1	0.1
CCc1nc(SCC(=O)Nc2ccccc2Cl)n[nH]1	-15.7
COc1ccccc1NC(=O)Cn1cnc2c1c(=O)n(C)c(=O)n2C	4.3
COc1cc([N+](=O)[O-])ccc1NC(=O)CSc1nc(C)cc(C(F)(F)F)n1	4.9
Cc1ccc(S(=O)(=O)NCCSc2ncc(-c3ccc([N+](=O)[O-])cc3)[nH]2)cc1	37.9
CCCn1cnc2cc(NCc3ccccn3)ccc21	-70.5
COc1ccc(OC)c(NC(=O)Cn2cc(C(=O)c3cccs3)c3ccccc32)c1	29.7
Cc1cc(C)cc(OCC(=O)Nc2cccc(-c3nnc(-c4ccccc4)o3)c2)c1	-82.2
CCn1c(=O)c(C(=O)NCCN2CCCCC2)c(O)c2ccccc21	-11.6
CCOC(=O)c1c(-c2ccc(OC)cc2)csc1NC(=O)c1ccccc1[N+](=O)[O-]	24.7
CN1CCN(c2ccccc2NC(=O)COc2ccccc2[N+](=O)[O-])CC1	6.3
Cc1ccccc1-c1nnc(SCC(=O)Nc2ccc(N3CCOCC3)cc2)o1	-41.1
O=C(NCc1ccco1)c1ccc(NC(=O)C2COc3ccccc3O2)cc1 (stereo unspecified)	-33.9
(cont.)
SMILES	MITF inhib
O=C(Nc1cccc(C(=O)OC2Cc3ccccc3C2=O)c1)c1ccccc1 (stereo unspecified)	16.9
CCc1cccc(OCC(=O)Nc2ccc(OC)cc2[N+](=O)[O-])c1	-81.6
O=C(CCn1nc(-c2ccc(Cl)cc2)c2ccccc2c1=O)Nc1cccc(C(F)(F)F)c1	4.4
O=C(Cn1cc(C(=O)C2CC2)c2ccccc21)Nc1ccccc1Cl	-2.5
CCCOc1ccc(Oc2nc(NCC)nc(OC)n2)nn1	-20.3
Cc1cccc(-c2nnc(SCc3nc4ccccc4c(=O)[nH]3)n2-c2ccccc2)c1	7.7
COc1cccc(NC(=O)CSc2nc3ccccc3c(=O)n2-c2cccc(C(F)(F)F)c2)c1	17.8
Cc1nn(C(=O)c2ccco2)c(C)c1CN1C(=O)c2ccccc2C1=O	8.4
Cc1c(Br)c([N+](=O)[O-])nn1C(C)C(=O)N1CCCc2ccccc21 (stereo unspecified)	-15.5
CCn1c(=O)c(C(=O)NCCO)c(O)c2ccccc21	9.6
COc1ccc(CN2C(=O)C(O)(CC(=O)c3ccco3)c3ccccc32)cc1OC (stereo unspecified)	0.7
Cn1c(=O)c2c(nc(NCCO)n2CCc2ccccc2)n(C)c1=O	54.1
